Assay outcomes as filed in PubChem.
gsp antagonist: qHTS for Antagonists of gsp, the Etiologic Mutation Responsible for Fibrous Dysplasia/McCune-Albright Syndrome: qHTS; AID 624288, 2012; 340,000 tested, 0.4% active; Potency, µM (highest dose often 76.9 µM), inactives show at the top dose activity change, negative = inhibition, actives largely listed as inhibitors; gsp-mutant cells, cAMP HTRF, 30 min; control for the full effect not named in the record; active = falling curve of any shape with a large fitted effect; inconclusive = falling curve, mostly with a smaller effect; inactive = flat or rising curve; cell line not stated here;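 note: intracellular cAMP measured with PDE inhibitor Ro 20-1724 present during compound exposure; potency is the fitted concentration of half-maximal effect; % is set by controls: 0 for no effect and ±100 for the full control effect; nearly all actives have a fitted effect of over 65% in size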
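Cells, 2000/well, grown 16–24 h in DMEM 10% FBS with 0.5 mg/ml G418, then compounds plus […] (300 uM addition stock), 30 min at 37C. cAMP read by HTRF (cAMP-d2 and anti-cAMP antibody-K in lysis buffer) after 30 min RT.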
CtBP-E1A inh: qHTS Assay for Inhibitors of the CtBP/E1A Interaction; AID 651724, 2012; 340,000 tested, 0.49% active; CtBP / adenovirus E1A interaction (AlphaScreen); AlphaScreen GST-E1A/His-CtBP binding, 1536-well; active compounds read low; control for the full effect not named in the record; activity change, % (concentration not given with the values); in the data active means activity change below about -65%; inconclusive means about -30% to -65%; inactive means above about -30%; note: % is set by controls: 0 for no effect and ±100 for the full control effect
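GST-E1A and His-tagged CtBP (125 nM each as 5X stock) were preincubated with pin-transferred compound for 2 h at 37 °C in the dark, then glutathione donor and nickel acceptor beads were added for 1 h before AlphaScreen reading.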
Six1-Eya2 inh: qHTS Assay for Inhibitors of the Six1/Eya2 Interaction; Homeobox protein SIX1 (Homo sapiens) + Protein phosphatase EYA2 (Homo sapiens), …; AlphaScreen GST-Six1/His-Eya2 binding, biochemical; active compounds read low; control for the full effect not named in the record; activity change, % (concentration not given with the values); 360,000 tested, 0.56% active; in the data active = activity change below about -65%; inconclusive = about -30% to -65%; inactive = above about -30%; note: % is set by controls: 0 for no effect and ±100 for the full control effect
Target sequence (O00167 whole entry, looked up): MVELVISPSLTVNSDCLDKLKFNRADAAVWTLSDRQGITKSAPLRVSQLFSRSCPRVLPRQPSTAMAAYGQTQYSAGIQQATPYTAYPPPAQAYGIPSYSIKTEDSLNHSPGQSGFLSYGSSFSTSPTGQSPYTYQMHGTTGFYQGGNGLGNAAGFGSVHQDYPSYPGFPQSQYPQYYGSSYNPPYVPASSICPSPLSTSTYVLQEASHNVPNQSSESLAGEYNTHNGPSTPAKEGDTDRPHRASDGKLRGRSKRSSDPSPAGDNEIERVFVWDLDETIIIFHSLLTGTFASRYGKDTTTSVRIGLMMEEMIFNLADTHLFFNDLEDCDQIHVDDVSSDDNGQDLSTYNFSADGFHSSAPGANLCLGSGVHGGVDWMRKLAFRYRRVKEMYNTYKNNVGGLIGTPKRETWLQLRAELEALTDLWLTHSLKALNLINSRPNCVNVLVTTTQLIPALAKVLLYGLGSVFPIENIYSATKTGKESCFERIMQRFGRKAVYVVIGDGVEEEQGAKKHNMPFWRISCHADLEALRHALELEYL
Target sequence (Q15475 whole entry, looked up): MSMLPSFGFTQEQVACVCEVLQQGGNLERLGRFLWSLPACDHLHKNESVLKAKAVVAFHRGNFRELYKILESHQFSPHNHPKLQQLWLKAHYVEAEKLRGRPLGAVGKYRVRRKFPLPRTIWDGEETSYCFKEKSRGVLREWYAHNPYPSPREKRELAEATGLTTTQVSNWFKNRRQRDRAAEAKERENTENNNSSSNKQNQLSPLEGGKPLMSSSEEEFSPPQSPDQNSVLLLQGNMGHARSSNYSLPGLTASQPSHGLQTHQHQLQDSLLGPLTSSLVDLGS
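Compounds are tested against tagged Six1 and Eya2 proteins bridged by glutathione donor and nickel acceptor beads; after a one-hour incubation at 37 °C without light, AlphaScreen emission is recorded.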
gsp ag: qHTS for Agonist of gsp, the Etiologic Mutation Responsible for Fibrous Dysplasia/McCune-Albright Syndrome: qHTS; Potency, µM (series often up to 76.9 µM), inactives show at the highest dose activation (cAMP increase), usual class: activators; 340,000 tested, 0.13% active; gsp mutant cells, cAMP HTRF, 30 min; control for the full effect not named in the record; active = well fitted activation curve with a large enough effect; inconclusive = small, poorly fitted or top-dose-only effect, or another doubt; inactive = no such curve, though single readings can be large or run the other way; cell line not stated here;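 note: phosphodiesterase inhibitor Ro 20-1724 added with compounds to block cAMP breakdown; potency is the fitted concentration of half-maximal effect; nearly all actives have a fitted effect of over 60% in size; about a fifth of the inactives were tested at one dose only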
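Cells stably selected in G418 were plated at 2000/well, grown 16-24 hr, then given compounds in DMSO with the PDE inhibitor […] (300 uM solution added) for 30 min at 37C; cAMP was read by HTRF.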
D2 agonist: Beta-Arrestin HTS for Positive Allosteric Modulators of the Human D2 Dopamine Receptor: Agonists. D(2) dopamine receptor (Homo sapiens), P14416. DiscoveRx PathHunter D2 beta-arrestin, luminescence, 90 min; 100% = 57 uM dopamine signal. activation, % (concentration not given with the values). 360,000 tested, 0.084% active. AID 624465, 2012; in the data active = activation above about 40%; inconclusive = about 15% to 40%; inactive = below about 15%; note: compound concentration not given in the record; the text of the record calls up to 30% inactive
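Agonist mode: compounds alone added to overnight-plated D2 PathHunter cells for 90 min at 37 C, with 57 uM final dopamine (EC100) defining full response. Beta-arrestin recruitment detected by chemiluminescent reagent, read after 1 h at ambient temperature.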
D2 potentiator: Beta-Arrestin HTS for Positive Allosteric Modulators of the Human D2 Dopamine Receptor: Potentiators. 360,000 tested, 0.23% active. potentiation, % (concentration not given with the values). D(2) dopamine receptor (Homo sapiens), P14416. DiscoveRx D2 beta-arrestin cells, luminescence, 90 min; 100% = 57 uM dopamine signal. AID 624464, 2012; active = potentiation of 50% or more; inconclusive = 30% to 50%; inactive = 30% or less;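 note: compound concentration not given in the record; tested on top of an EC20 dose of dopamine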
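PathHunter D2 cells, attached overnight at 37 deg C, received compound in DMSO plus dopamine at EC20 (50 nM final) for 90 min at 37 deg C. Beta-arrestin recruitment was read as luminescence after 1 h with detection reagent at ambient temperature.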
* hit, by the source's call; ? = inconclusive; . = not tested or not shown; [ ] = dose if it differs, or a comment.

SMILES	gsp antagonist	CtBP-E1A inh	Six1-Eya2 inh	gsp ag	D2 agonist	D2 potentiator
N#CC(C#N)=NNc1ccc(S(=O)(=O)N2CCCCC2)cc1	25µM*	9	-18	6%	-8.3	-20
Cc1ccc2[nH]c(=O)c(CN(C)C(=O)c3cccs3)cc2c1	3%	.	-5	4%[15.4 µM]	3.7	-3
C=C1CCN([C@H](C(=O)O)C(C)C)S(=O)(=O)c2ccccc21	10%	3	4	-26%	-0.6	-5
CSc1nsc(SC)c1C(=O)N1CCN(S(=O)(=O)c2ccc(C)cc2)C1C(C)C (stereo not drawn)	-24%	-2	-13	5%	-0.2	-10
Cc1ccc(S(=O)(=O)Nc2cccc(C(=O)NCCCN3CCCC3=O)c2)cc1F	-2%	2	2	6%	-4.2	-16
O=C(CSCC(=O)NC1CC1)Nc1ccccc1	14%	2	2	-12%	0.1	-16
CCOC(=O)c1cc(-c2ccccc2)nc2c1c(C)nn2-c1ccccn1	-23%	6	0	20%	-4.7	-5
C[C@]12c3[nH]c4ccccc4c3CCN1C(=O)C(CC(=O)NCCN1CCOCC1)C[C@@H]2C(=O)N1CCCCC1 (stereo partly drawn)	7%	3	7	.	-0.2	.
C=CCNS(=O)(=O)c1ccc(OCC(=O)OCC)cc1	-3%	-24	3	-40%[inhibitor]	-2.0	-14
CCCn1c2ccccc2c2cnn(CC(=O)NCCCN3C(C)CCCC3C)c(=O)c21 (stereo not drawn)	-5%	.	-7	11%	-5.1	-11
COc1ccc(NS(=O)(=O)c2cccc(C(=O)NCC(c3ccc(OC)cc3)N3CCCCC3)c2)cc1 (stereo not drawn)	-4%	-15	-3	-5%	2.5	-6
CCOC(=O)N(C)c1c(CC)nc2c(OCc3ccc(S(C)(=O)=O)cc3)cccn12	.	1	-3	.	8.4	5
CCc1nc2ccc(C(=O)Nc3cccc(OC)c3)cn2c1N(CCC(C)C)CCN(C)C	.	-10	-11	.	-2.2	0
COc1cnc(SCc2c(Cl)cccc2Cl)nc1Cl	-19%	38	27	5%	0.0	5
COc1ccc(NC(=O)c2cc3c(CO)cnc(C)c3oc2=Nc2cccc(F)c2)c(OC)c1	0%	6	7	23%	-6.4	5
CCc1nc2c(OCc3c(C)noc3C)cccn2c1N(C=O)Cc1ccccc1	.	9	-4	.	13	13
Cc1nc2ncnn2c(C)c1CCC(=O)NCc1ccc2c(c1)OCO2	9%	-1	5	13%	-0.5	-8
O=C(CCN=C1NS(=O)(=O)c2ccccc21)OCc1nnc(-c2ccccc2)o1	-8%	5	1	6%	3.7	-3
CCn1cc(C(=O)O)c(=O)c2cc(F)c(N/N=C/c3ccccc3[N+](=O)[O-])cc21	8%	?	?	3%	1.5	-2
Cc1cc(O)c(C(=O)/C=C/c2ccccc2Br)c(=O)o1	4%	1	-7	?	-1.5	2
Cn1c(=O)c2c(-c3ccc(C(C)(C)C)cc3)n(N3CCOCC3)cc2n(C)c1=O	4%	4	8	-24%	-1.5	-16
CC1CCC2C(=O)N(c3cccc(OS(=O)(=O)c4ccccc4)c3)C(=O)C2C1 (stereo not drawn)	-21%	0	-15	0%	-1.0	-4
NC(=O)c1cc2nc(-c3ccco3)cc(C(F)(F)F)n2n1	-18%	-80*	-72*	-4%	-2.7	-2
CCOC(=O)/C=c1\s/c(=C\c2ccc(C)cc2)c(=O)n1CC(=O)NCc1ccco1	16%	13	2	35%	-3.3	-3
NC(=O)COC(=O)c1cccc(S(=O)(=O)N2CCN(c3ccccc3)CC2)c1	4%	.	0	3%	7.7	-10

In the list so far, two have an aryl thioether with sulfur outside any ring:
SMILES	gsp antagonist	CtBP-E1A inh	Six1-Eya2 inh	gsp ag	D2 agonist	D2 potentiator
CSc1nsc(SC)c1C(=O)N1CCN(S(=O)(=O)c2ccc(C)cc2)C1C(C)C (stereo not drawn)	-24%	-2	-13	5%	-0.2	-10
COc1cnc(SCc2c(Cl)cccc2Cl)nc1Cl	-19%	38	27	5%	0.0	5

(cont.)
SMILES	gsp antagonist	CtBP-E1A inh	Six1-Eya2 inh	gsp ag	D2 agonist	D2 potentiator
CCCCC(NC(=O)c1ccccc1)C(=O)OCC(=O)N1c2ccccc2Sc2ccccc21 (stereo not drawn)	5%	0	11	12%	-3.5	-45
COC(=O)c1ccc(Oc2nc3c(c(=O)n(C)c(=O)n3C)n2CCC(C)C)cc1	-5%	0	0	2%	-3.0	-6
CC(=O)Oc1ccc(-c2cc3ccccc3oc2=O)cc1	-4%	.	-1	23%	1.8	-5
Cc1ccc2c(c1)CC1(CN2C)C(=O)OC2(CCCCC2)OC1=O	-16%	7	-3	0%	-0.8	-1
O=C(Nc1ccc(Cl)cn1)c1ccc2c(Cl)c3c(nc2c1)CCC3	-7%	6	23	-36%[inhibitor]	-3.6	9
O=[N+]([O-])c1ccc(Oc2cccc(C(F)(F)F)c2)nc1	8%	4	4	-30%[inhibitor]	-3.1	-2
COc1cc(Br)c(CN2CCCN(C)CC2)cc1OC	8%	.	9	?	-4.0	-33
Cc1ccc(O)c(-c2cc(C(=O)NCc3ccncc3)[nH]n2)c1	-8%	-21	-4	-20%	1.8	-7
O=C(NCc1nnc2c3ccccc3c(-c3ccccc3)nn12)c1ccccc1Cl	9%	4	5	15%[15.4 µM]	-2.2	2
COc1ccc(OCC(=O)Nc2cc(OC)cc(OC)c2)cc1	-4%	5	-1	-11%	-2.2	-11
COc1cc(/C=C(\C#N)C(N)=O)ccc1OCc1c(C)no[n+]1[O-]	7%	.	-5	13%	1.4	-6
CCOc1cc(/C=N/n2c(COc3ccccc3)n[nH]c2=S)ccc1O	?	.	-7	0%	-6.1	-10
Cc1ccc(O)c(C2=Nc3ccccc3N=C(c3ccco3)C2)c1	1%	9	-1	?	1.3	?
Cc1ccc(C(C)C)c(OCC(=O)NN=C2CCCCCCC2)c1	-5%	-8	-12	9%	-3.7	-10
CCC/C=C(\CCC)C(NC(=O)Cc1ccccc1)c1ccc(C(=O)OC)cc1 (stereo not drawn)	-9%	12	10	4%	-1.6	-13
CN(C)S(=O)(=O)c1ccc(NC(=O)COc2ncnc3sccc23)cc1	-6%	5	-15	22%[15.4 µM]	-2.0	2
COc1ccccc1N1C(=O)CC(N2CCN(c3ccc(F)cc3)CC2)C1=O (stereo not drawn)	2%	-11	1	0%	-3.6	-14
O=S(=O)(Nc1ccc2cn[nH]c2c1)c1cc(Br)ccc1Br	-1%	2	-4	-19%[15.4 µM]	0.5	16
O=C(NC1CCCCCC1)C1CC(=O)N(c2ccc(Cl)cc2)C1 (stereo not drawn)	3%	-1	-1	5%	-1.9	-1
COc1ccc(C(=O)Nc2ccc3c(c2)OCCO3)cc1S(=O)(=O)N1CCOCC1	13%	-5	-2	-21%	10	-1
COc1ccc2occ(C(=O)c3ccc(N=C(C)N(C)C)cc3)c2c1	9%	6	2	28%	-4.5	-16
Cn1c(=O)cc(SCC(=O)N2CCCC2)c2ccccc21	2%	-1	3	3%[15.4 µM]	-3.3	-2
CN1C(C(=O)NCc2ccc(OC(F)(F)F)cc2)CC2Cn3c(nc4cc5ccccc5cc43)C21 (stereo not drawn)	-17%	4	8	.	0.2	-13
O=C(Cc1cccc2ccccc12)NN1C(=O)CSC1=S	-7%	-2	-9	7%[15.4 µM]	-4.2	-14
O=C(O)CCC(=O)N1CCN(c2ccc(C(=O)c3ccc(F)cc3)cc2)CC1	-12%	-4	-5	-9%	0.2	-2

Some of the entries so far, field by field.
N#CC(C#N)=NNc1ccc(S(=O)(=O)N2CCCCC2)cc1
  gsp antagonist = 25µM* | CtBP-E1A inh = 9 | Six1-Eya2 inh = -18 | gsp ag = 6% | D2 agonist = -8.3 | D2 potentiator = -20

Cc1ccc2[nH]c(=O)c(CN(C)C(=O)c3cccs3)cc2c1
  gsp antagonist = 3% | CtBP-E1A inh = . | Six1-Eya2 inh = -5 | gsp ag = 4%[15.4 µM] | D2 agonist = 3.7 | D2 potentiator = -3

C=C1CCN([C@H](C(=O)O)C(C)C)S(=O)(=O)c2ccccc21
  gsp antagonist = 10% | CtBP-E1A inh = 3 | Six1-Eya2 inh = 4 | gsp ag = -26% | D2 agonist = -0.6 | D2 potentiator = -5

CSc1nsc(SC)c1C(=O)N1CCN(S(=O)(=O)c2ccc(C)cc2)C1C(C)C (stereo not drawn)
  gsp antagonist = -24% | CtBP-E1A inh = -2 | Six1-Eya2 inh = -13 | gsp ag = 5% | D2 agonist = -0.2 | D2 potentiator = -10

Later entries
SMILES	gsp antagonist	CtBP-E1A inh	Six1-Eya2 inh	gsp ag	D2 agonist	D2 potentiator
CC(OC(=O)c1cc2sccc2n1C)C(=O)NCc1ccc(F)cc1 (stereo not drawn)	2%	6	13	21%	-0.6	-1
COc1ccccc1C1NC(=O)NC(C)=C1C(=O)OCc1ccccc1 (stereo not drawn)	-8%	-19	11	2%[15.4 µM]	8.0	-2
O=C(COC(=O)c1cc(=O)c2ccccc2o1)NC1CCCC1	-5%	2	7	5%	0.8	4
CC(C)CCn1c(N2CCN(c3cccc(Cl)c3)CC2)nc2c1c(=O)[nH]c(=O)n2C	3%	2	-4	-12%	-2.6	2
Cc1ccc(S(=O)(=O)N2CCN(C(=O)c3ccccc3)CC2)c(C)c1NS(C)(=O)=O	-8%	0	22	-21%	-0.5	-5
Cc1ccc(S(=O)(=O)/N=C2/NC(=O)/C(=C/c3cccnc3)S2)cc1	-15%	-3	-6	4%	-5.7	-13
CN(C)CCN(Cc1ccco1)S(=O)(=O)c1ccc(-c2ccc(=O)[nH]n2)s1	10%	-9	0	?	-2.1	-36
Cc1c(C)c2ccc(OS(C)(=O)=O)c(C)c2oc1=O	9%	-1	1	3%	0.4	-11
CC(C)C1(CCNC(=O)c2cccs2)CCOC(C)(C)C1 (stereo not drawn)	5%	9	8	?	-5.8	-12
CC(C)Oc1cccc(-c2nnc(SCC(=O)Nc3ccc4c(c3)OCCO4)n2N)c1	-6%	1	-3	13%	-2.0	-13
Cc1cc(Br)ccc1NC(=O)CN1C(=S)NC(C)(C)CC1C (stereo not drawn)	6%	-7	-2	-21%[15.4 µM]	0.4	-4
